Screening data: PubChem, several laboratories
B2AR ag – activates human beta-2 adrenergic receptor causing internalization. Am2.2-beta2AR cells, FAP receptor internalization, flow cytometry; reference of the scale not given here. 340,000 compounds, 0.43% hits. response, % (no concentration beside the values). P07550;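 active = response above a set limit, near 3 SD of response in nonfluorescent compounds, cut at about 42% in these data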;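 note: stock transfer was 100 nL into about 11 µL; a reference agonist was the positive control; negative values mostly stem from fluorescent compounds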
UCH37 DUB inh – human UCH37 deubiquitinating enzyme inhibition. Q9Y5K5. purified proteasome/UCH37, Ub-AMC cleavage fluorescence. inhibition, % (no concentration beside the values). 330,000 compounds, 0.33% hits. AID 588478;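 active = mean of two replicates above 20%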;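 note: 0% = compound-free wells with enzyme and 100% = wells lacking proteasome; stock transfer was 100 nL into about 20 µL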
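System: Proteasome-associated human UCH37 deubiquitinase; Input: 0.15 nM proteasome in added enzyme buffer; Also added: Ub-AMC substrate from 1 µM stock; Incubation: 30 min compound-proteasome preincubation then 25 min substrate reaction, room temperature; Detection: fluorescence, ex 355 nm, em 460 nm; Read-out: % inhibition of Ub-AMC cleavage fluorescence; Benchmarks: no-proteasome and no-compound wells.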
Vif A3G – HIV-1 Vif–A3G interaction blockers – biochemical, TR-FRET, GST-Vif 1-94, biotin-A3G peptide, dose response retest, primary screen (AID 1117319). 260,000 compounds, 0.57% hits. TR-FRET GST-Vif / biotin-A3G peptide binding; higher % means a stronger effect; test concentration not given here; strong numbers were not always called active. one-dose inhibition, %; IC50 in µM for titrated hits;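 active = above the screen mean plus three standard deviations and confirmed in dose response; inconclusive = results disagree or hit not tested in dose response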;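 note: Vif residues 1-94 fused to GST binding biotinylated APOBEC3G peptide 110-148; 0% = full assay without inhibitor and 100% = GST in place of GST-Vif; retest series ran down from 100 µM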
E coli growth – E. coli growth inhibition; OD600 absorbance (test concentration not listed); Escherichia coli growth, OD600, 23 h; active compounds read low; 330,000 compounds, 0.21% hits; AID 1053175;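 active = OD600 absorbance below the run mean of sample wells minus 3.6 SD, in any replicate, cut at about 0.56 in these data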;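 note: stock transfer was 300 nL into about 60 µL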
A1 inh – inhibitors of the anti-apoptotic protein A1, read as caspase activation; MEF A1-2A-BIM cells, Caspase-Glo 3/7 luminescence, 3 h; percent of clofoctol response, vehicle zero; caspase activation, % (concentration not given with the values); 330,000 compounds, 0.066% hits; AID 2462;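 active = over half of replicate activation scores above 10%, or exactly half above 10 with the replicate mean above 10; inconclusive = replicate mean below 10 yet half the replicates above 10; inactive = over half of replicates below 10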;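 note: wells of about 30 µL received 50 nL stock; many hits fall short of the cut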
HNF4A DNA FP – change in binding of human HNF4 alpha to DNA | P41235 | 360,000 compounds, 0.3% hits | HNF4a-FITC DNA binding, fluorescence polarization, 1 h | activity change, % at 10 µM; in the data active = activity change above about 30%, passing the limit was not always enough;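 note: controls were the assay level and a saturating level of protein; the project sought stronger binding though the title names inhibitors; some compounds called inactive have numbers as strong as hits; positive values seem to mean higher polarization but the record does not say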
LANA-H2A inh – blocks KSHV LANA binding to histone H2A/H2B; Q9QR71; cell-free LANA-H2A/H2B peptide, fluorescence polarization; inhibition, % (no concentration beside the values); 320,000 compounds, 0.6% hits; in the data active = inhibition mostly above about 10%, no sharp cut-off; inactive = mostly below about 6.7%;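 note: stock transfer was 7.5 nL into about 10 µL; 0% = median of vehicle wells and 100% = median of positive control wells; one replicate is shown; the record names a cut of 25% in any replicate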
Target sequence (Q9QR71 whole entry, looked up): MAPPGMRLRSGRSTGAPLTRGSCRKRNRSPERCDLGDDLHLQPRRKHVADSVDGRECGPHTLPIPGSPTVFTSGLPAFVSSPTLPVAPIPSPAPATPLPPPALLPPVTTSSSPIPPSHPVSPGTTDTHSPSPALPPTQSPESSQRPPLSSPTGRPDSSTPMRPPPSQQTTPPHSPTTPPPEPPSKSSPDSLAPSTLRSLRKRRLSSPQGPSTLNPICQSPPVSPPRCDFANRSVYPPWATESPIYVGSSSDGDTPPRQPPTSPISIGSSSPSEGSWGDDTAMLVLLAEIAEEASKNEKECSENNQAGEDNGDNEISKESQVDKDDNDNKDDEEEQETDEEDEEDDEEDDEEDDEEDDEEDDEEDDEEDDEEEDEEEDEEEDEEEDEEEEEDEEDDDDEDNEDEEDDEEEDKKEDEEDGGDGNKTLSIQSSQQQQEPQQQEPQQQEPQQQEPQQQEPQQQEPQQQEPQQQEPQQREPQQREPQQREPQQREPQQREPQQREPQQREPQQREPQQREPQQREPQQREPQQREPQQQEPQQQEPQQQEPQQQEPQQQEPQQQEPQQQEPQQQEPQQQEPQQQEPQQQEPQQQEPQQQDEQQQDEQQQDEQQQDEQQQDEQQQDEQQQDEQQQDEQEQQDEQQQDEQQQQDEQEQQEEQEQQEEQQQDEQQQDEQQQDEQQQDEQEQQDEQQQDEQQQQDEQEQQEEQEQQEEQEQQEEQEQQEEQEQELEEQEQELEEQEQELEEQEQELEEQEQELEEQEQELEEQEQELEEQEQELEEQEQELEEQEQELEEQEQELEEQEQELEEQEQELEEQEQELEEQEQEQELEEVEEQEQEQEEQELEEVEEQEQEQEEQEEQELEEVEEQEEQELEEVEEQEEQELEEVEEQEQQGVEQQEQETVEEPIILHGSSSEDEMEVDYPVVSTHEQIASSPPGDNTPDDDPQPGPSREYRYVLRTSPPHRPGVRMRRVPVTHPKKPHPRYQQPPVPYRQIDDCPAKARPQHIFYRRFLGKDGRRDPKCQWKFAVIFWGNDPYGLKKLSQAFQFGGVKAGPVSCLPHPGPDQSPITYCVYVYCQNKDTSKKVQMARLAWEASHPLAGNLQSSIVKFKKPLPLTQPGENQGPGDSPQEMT
Active calls of the source: *; ? = inconclusive; / = not tested or not shown. Compounds were not picked by outcome; 2.1% or so of the library scored in one or more.

SMILES	B2AR ag	UCH37 DUB inh	Vif A3G	E coli growth	A1 inh	HNF4A DNA FP	LANA-H2A inh
O=C(Nc1ncnc2sc3c(c12)CCCCC3)c1ccc(F)cc1	-15.2	1.9	-2.6%	0.689	0.2	1.5	-1.3
CCN(CC)c1ccc(C2C3CCCCC3(O)CCN2CC(=O)N2CCCCC2)cc1 (stereo not drawn)	4.9	7.1	11.9%	0.656	-0.1	-2.0	-7.6
C/C(=N\NC(=O)c1c(C)nc2ccccn12)c1cccc([N+](=O)[O-])c1	-10.5	/	/	/	1.0	0.4	-0.1
COc1ccc(C(c2nnnn2C2CCCCC2)N2CCN(C)CC2)c(OC)c1 (stereo not drawn)	3.0	-0.6	-1.0%	0.714	-0.7	0.2	-1.0
CS(=O)(=O)N(CC(=O)O)c1ccc2c(c1)OCO2	-0.4	2.1	-2.6%	0.702	-0.4	1.2	-3.3
CCOc1ccc(-n2c(SCC(N)=O)nc3sc4c(c3c2=O)CCN(C)C4)cc1	-12.0	7.5	22.1%	0.679	-0.2	9.4	6.0
Oc1ccccc1C=NNC(=S)NN=Cc1ccccc1O	14.2	2.4	-0.1%	0.571	/	1.6	/
COc1ccc(/C=N/n2c(C)nc3sc(C)c(C)c3c2=O)cc1	-10.1	/	-0.2%	/	0.1	-4.5	1.0
CCc1ccc(Nc2ncc3c(n2)CC(C)(C)CC3=O)cc1	-2.0	-12.3	?	0.7	-0.4	2.6	-3.3
Cc1ccn2c(=O)nc(SCc3cccc(C(F)(F)F)c3)nc2c1	5.2	-0.5	8.1%	0.663	0.2	4.6	-2.6
Cc1c(C(=O)Nc2nc3ccccc3[nH]2)oc2ccc(Br)cc12	8.0	-8.4	/	0.667	-0.1	-1.2	1.6
Cc1ccc(-c2cc(C(=O)OCC(=O)Nc3ncc(C(F)(F)F)cc3Cl)c3ccccc3n2)cc1	-6.6	-80.7	2.5%	0.662	-1.4	-1.3	5.4
CCCCNCC1CCCO1 (stereo not drawn)	-1.9	-3.0	-1.3%	0.686	1.7	0.1	5.3
N/C(Cc1nc(-c2ccc(Cl)cc2)cs1)=N/O	-2.2	/	?	/	-3.4	1.1	0.9
CCn1c(SCC(=O)N2c3ccccc3CCc3ccccc32)nc2c1c(=O)n(C)c(=O)n2C	7.8	0.4	-2.5%	0.7	-0.4	-2.1	1.5
O=C1C(=C(c2ccccc2)c2ccccc2)Nc2ccccc21	2.2	1.7	-0.1%	0.734	-0.7	3.5	2.8
CC(=O)Nc1ccccc1NC(=O)CC(C)(C)C	6.6	-0.1	0.1%	0.659	-0.5	-3.4	1.3
CN(C(=O)COc1coc(CN2CCN(c3ccccc3)CC2)cc1=O)c1ccccc1	-4.5	3.8	2.5%	0.689	-0.3	-2.7	1.5
COc1ccc(C)cc1N(C(=O)CNC(=O)c1ccco1)C(C(=O)NCC1CCCO1)c1ccccc1 (stereo not drawn)	-2.9	1.6	/	0.672	-0.1	3.2	0.8
Cc1ccc(C)c(Cn2nnc3c(=O)[nH]c(C4CCCN(C(=O)c5ccco5)C4)nc32)c1 (stereo not drawn)	1.5	3.7	-1.3%	0.681	-1.7	-0.8	2.3
CC(C)C(C)(C#N)NC(=O)CSc1nnc(-c2ccccc2)o1 (stereo not drawn)	-8.3	0.6	-4.3%	0.672	0.9	-3.5	0.1
Cc1nnc(NC(=O)CN2C(=O)c3ccccc3S2(=O)=O)s1	-3.3	1.1	-0.2%	0.773	1.4	-1.9	21.2
COCCNS(=O)(=O)c1ccc2c3c(cccc13)C(=O)N2C	-13.1	-100.0	7.8%	0.709	0.8	5.1	2.7
NC(=O)C1(NC(=O)[C@@H]2CC3(CC(c4cccc(NC(=O)[C@@H]5CCC(=O)N5)c4)=NO3)CN2C(=O)c2ccccc2)CC1 (stereo partly drawn)	9.4	/	0.2%	/	-0.3	2.3	2.5
CC(Cc1nnc(N)s1)c1ccccc1 (stereo not drawn)	0.2	0.3	19.8%	0.646	0.9	0.5	3.5
SMILES	B2AR ag	UCH37 DUB inh	Vif A3G	E coli growth	A1 inh	HNF4A DNA FP	LANA-H2A inh
O=c1c2ccccc2c(-c2ccccc2)nn1-c1cc(Cl)ccc1[N+](=O)[O-]	-5.4	1.1	76.1%	0.725	0.1	2.7	1.7
O=C(NC1CCCc2ccccc21)C12CC3CC(CC(O)(C3)C1)C2 (stereo not drawn)	6.3	4.0	-7.9%	0.651	-0.2	3.4	-4.1
CCN(CC(=O)Nc1ccc(NC(C)=O)cc1)C(=O)COc1ccccc1Cc1ccccc1	-15.3	2.5	9.3%	0.664	?	2.9	1.4
COc1ccc(N2C(=O)CC(N(CCc3ccc(S(N)(=O)=O)cc3)C(=S)Nc3ccccc3)C2=O)cc1 (stereo not drawn)	-0.5	5.6	?	0.724	1.1	-4.8	1.2
Cc1noc2ncnc(N3CCCCC3)c12	0.8	0.0	-11.0%	0.673	0.6	-1.7	-1.6
CCOc1cc(/C=C(/C#N)c2ccc(Cl)cc2)cc(Cl)c1OCC(=O)O	13.6	-2.6	8.2%	0.642	/	-0.2	/
CSc1nncc(-c2ccc(F)c(F)c2)n1	-10.2	2.1	0.8%	0.682	-0.9	-0.7	1.4
O=S(=O)(c1ccc(NC(=S)NCc2ccco2)cc1)N1CCCC1	10.0	-0.5	-1.3%	0.689	0.0	1.2	-6.2
O=C(O)c1ccccc1-c1ccccc1C(=O)Nc1nccs1	-3.6	0.4	-1.4%	0.701	0.4	-4.8	-0.3
COc1cc2nc(N(CCCN(C)C)C(=O)c3ccc(S(=O)(=O)N4CCc5ccccc5C4)cc3)sc2cc1OC	16.9	4.5	-3.9%	0.703	0.2	3.9	1.5
Cc1cc(NC(=O)C2(c3ccccc3)CCCC2)no1	-5.0	4.8	?	0.726	-0.4	-0.8	-1.5
CC1CCN(CCCNC(=O)CN2C(=O)CSc3ccc(S(=O)(=O)N4CCC(C)CC4)cc32)CC1	0.3	4.5	-4.7%	0.713	0.4	3.0	-0.6
Cc1nc(SCCC(C)C)c([N+](=O)[O-])[nH]1	2.4	10.7	6.5%	0.709	0.6	-1.1	-2.8
CN(CCc1ccccn1)Cc1ccc(Cl)cc1Cl	-2.6	4.3	-1.4%	0.643	-0.7	-2.9	0.0
CCCN1Cc2cc(OC)ccc2-c2ccccc2S1(=O)=O	-0.9	0.2	0.2%	0.67	/	1.7	/
CC1CCN(C(=O)c2[nH]cnc2C(=O)N[C@@H](Cc2ccccc2)C(=O)OC(C)(C)C)CC1	5.8	0.2	/	/	0.4	-2.7	0.0
CC(C)CCN(CCC(C)C)C/C(O)=C(\C#N)c1nc(-c2ccccc2)cs1	8.2	0.9	-1.6%	0.704	-0.3	-1.9	2.4
O=C(N/N=C1\C/C(=N\NC(=O)c2ccncc2)c2ccccc21)c1ccncc1	10.1	/	6.4%	/	-5.0	-12.0	-0.5
O=C(NC(NC(=S)Nc1ccccc1)C(Cl)(Cl)Cl)c1cccc(Cl)c1 (stereo not drawn)	1.5	-5.6	10.5%	0.628	-0.8	-6.6	-0.3
Cc1nn(CCO)c(N)c1C1(O)C(=O)Nc2c(Cl)cc(Cl)cc21 (stereo not drawn)	-0.1	2.4	-11.2%	0.632	2.5	-1.8	-3.6
COC(=O)CCC(=O)NN1C(=O)c2ccccc2C1=O	0.8	-0.3	/	0.682	0.2	0.8	-5.1
O=C1CC(C(=O)N(c2cccc(F)c2)C(C(=O)NC2CCCC2)c2ccccn2)CS1 (stereo not drawn)	-0.7	-0.6	-0.4%	0.702	-0.3	1.2	2.7
O=C(NCc1ccccn1)c1cc(-c2ccc(Cl)cc2)nc2ccccc12	-15.1	-5.4	-5.4%	0.749	0.3	1.8	2.5
O=C(NC(=S)N1CCN(Cc2ccccc2)CC1)c1cccnc1	1.4	2.8	/	0.655	-0.2	3.0	0.1
N=c1oc2ccccc2cc1-c1nc2ccccc2c(=O)[nH]1	-10.9	0.1	9.4%	0.722	0.4	-0.5	-1.3
SMILES	B2AR ag	UCH37 DUB inh	Vif A3G	E coli growth	A1 inh	HNF4A DNA FP	LANA-H2A inh
COc1ccccc1NC(=O)c1cc2c(CO)cnc(C)c2oc1=Nc1ccc(OC)c(OC)c1	48.8*	2.6	/	0.631	-0.4	-1.0	-1.6
Cc1cccc(C(=O)Nc2c3c(nn2C(C)(C)C)CS(=O)(=O)C3)c1	-2.2	1.2	/	0.694	2.6	-2.9	-1.0
COCCCNC(=S)NNC(=O)c1cc(-c2cccnc2)nc2ccccc12	-1.0	6.3	/	0.74	0.3	1.5	1.9
COc1ccc(N2CCN(C(CNC(=O)c3ccco3)c3cccnc3)CC2)cc1 (stereo not drawn)	4.0	-0.9	7.3%	0.713	-1.2	-0.3	-1.3
O=[N+]([O-])c1cccc(-c2n[nH]c(=S)n2-c2ccccc2)c1	/	1.7	5.1%	0.646	-0.4	/	-1.4
CCCCn1c(=O)[nH]c(=O)c2c1nc(-c1ccc3ccccc3c1)n2CC	8.0	-264.2	4.3%	0.71	0.5	3.7	14.5
CCCc1cc(=O)oc2cc(OC(C)C(=O)NCC3CCC(C(=O)O)CC3)ccc12 (stereo not drawn)	-5.3	-10.4	/	0.716	1.1	-2.7	-2.4
CC(C)(C)OC(=O)N[C@@H](Cc1ccccc1)C(=O)NCC1CCC(C(=O)O)CC1 (stereo partly drawn)	-1.0	3.9	-6.2%	0.659	-0.3	-4.7	-3.8
COc1ccccc1CC(=O)Nc1ccc(-c2nnc(-c3ccco3)o2)cc1	2.4	-39.4	27.6%	0.69	-0.9	0.3	-0.7
COc1ccc(OCC(O)Cn2c(N3CCCCC3)nc3c2c(=O)n(C)c(=O)n3C)cc1 (stereo not drawn)	10.3	1.5	4.5%	0.664	0.3	1.1	-3.1
O=C(NCCC1=CCCCC1)C(=O)NCc1ccccc1Cl	3.1	18.4	2.9%	0.713	0.4	-3.3	-0.4
C=CCOc1ccc(C2/C(=C(\O)c3c(C)[nH]c(C(=O)OC)c3C)C(=O)C(=O)N2CCN(C)C)cc1 (stereo not drawn)	-3.6	0.6	-0.9%	0.757	0.7	-1.0	-5.4
COc1ccc(OC)c(NC(=O)CN2CCC(NC(=O)c3ccccc3C)CC2)c1	10.4	1.4	?	0.657	-0.6	3.0	-0.4
S=c1[nH]nc(-c2cccc(Cl)c2)n1/N=C/c1ccc(-c2ccccc2Br)o1	14.1	/	-10.4%	/	-0.3	1.2	-0.5
Cc1cc(Oc2ccc(=O)n(C)n2)nc(SCc2ccccc2)n1	-18.1	2.6	-9.1%	0.723	0.9	0.0	3.1
CC(=Nc1cccc(O)c1)c1sc2ccccc2c1O	7.1	0.0	11.2%	0.688	-5.0	-5.0	2.5
COC(=O)C12OCC34C(CC5C(C)=C(O)C(=O)CC5(C)C3C(O)C1O)OC(=O)C(OC(=O)C=C(C)C)C24 (stereo not drawn)	-14.9	/	1.5%	/	/	-4.1	/
CCN(C(=O)CC(C)C)c1nnc(Cn2nnc3ccccc32)s1	-9.9	1.1	/	0.696	-0.2	0.5	2.2
Cn1cc(CN2CCC(O)CC2)c(-c2ccc(Oc3ccccc3)cc2)n1	-3.3	3.2	2.9%	0.681	1.2	5.6	-2.5
CN(C)CCCSc1nc2ccccc2s1	5.9	5.9	4.4%	0.66	-0.1	3.8	3.1
CCC1(C)NC(=O)N(CC(=O)Nc2sc3c(c2C(=O)OC)CCCCC3)C1=O (stereo not drawn)	-0.1	-0.3	4.0%	0.7	-1.2	1.7	-3.8
